Bioassay records (PubChem BioAssay)
StopGo FLuc: lowers the firefly signal of an FMDV 2A StopGo reporter; HEK cells with a luciferase reporter of 2A StopGo recoding; hit rate 0.23% among 120,000; Potency, µM (titrated, usually from 57.5 µM), without a hit: top-dose signal change, negative = less light; active = well fitted falling curve with a large enough effect; inconclusive = small, poorly fitted or top-dose-only effect; inactive = no such curve, though single readings can be large or run the other way; note: nearly all actives have a fitted effect of over 60% in size; overnight with compound
StopGo RLuc: lowers the Renilla signal of an FMDV 2A StopGo reporter | HEK cells with a luciferase reporter of 2A StopGo recoding | Potency, µM (highest dose often 57.5 µM), inactives show top-dose signal change, negative = less light | hit rate 0.32% among 120,000 | AID 1745857; active means well fitted falling curve with a large enough effect; inconclusive means small, poorly fitted or top-dose-only effect; inactive means no such curve, though single readings can be large or run the other way; note: nearly all actives have a fitted effect of over 55% in size; overnight with compound
Starred values were filed as active, the others as inactive; ? = inconclusive; & = joins results of further samples; [ ] = dose if it differs, or a comment. % is set by controls: 0 for no effect and ±100 for the full control effect; potency is the fitted concentration of half-maximal effect.

SMILES	StopGo FLuc	StopGo RLuc
CCCCN(C)C(=O)CCC(=O)NNc1nc2ccccc2c2nc(C)nn12	-15%	-11%
CCc1noc(-c2ccc(N3CCC(C)CC3)c([N+](=O)[O-])c2)n1	230%[activator]	-5%
CCc1nc(-c2cc(S(=O)(=O)N3CCN(c4ccc(OC)cc4)CC3)ccc2OC)no1	5%	-12%
Cc1ccccc1Cn1c(=O)n(CCCCC(=O)NCc2ccc3c(c2)OCO3)c(=O)c2ccccc21	-14%	-4%
COc1ccc(-c2nc(C(=O)N3CCCCC3C)nn2-c2ccccc2Cl)cc1 (stereo not drawn)	22%	22%
CCc1ccc(N(CC)C(=O)c2sc3nc4n(c(=O)c3c2C)CCCC4)cc1	-18%	-2%
Cc1ccc(-c2ccc(CCC(=O)O)n2-c2ccc(C)c(Cl)c2)cc1	57%[activator]	-12%
COc1ccc(OC)c(NC(=O)CCn2cnnn2)c1	-15%	-15%
CCc1ccc(-c2cc(C(F)(F)F)on2)cc1S(=O)(=O)NCc1ccc(OC)cc1	-10%	121%[activator]
COc1ccc2cnn(CC(=O)Nc3cc(F)cc(F)c3)c(=O)c2c1OC	24%	28%
Cc1ccc2c(c1)C(c1ccc(F)cc1)N(C(=O)Cc1cccc3ccccc13)CC(=O)N2 (stereo not drawn)	?	1%
O=C(Nc1ccc(F)c(Cl)c1)c1cc(S(=O)(=O)NCc2ccc3c(c2)OCO3)ccc1F	1%	11%
CCCCN(C)C(=O)Cn1c(=O)c(S(=O)(=O)c2ccccc2)cc2ccccc21	9%	26%
COc1ccccc1-c1nc(CNC(=O)Nc2ccccc2)c(C)o1	-14%	54%[activator]
N#Cc1ccc(Oc2nc(-c3ccccc3O)nc3ccccc23)cc1	16%	7%
O=C(NCCc1ccc(Cl)cc1)C1CCN(Cc2cc3ccccc3n2Cc2ccccc2)CC1	-10%	-14%
COc1cccc(Cn2nnc(C(=O)Nc3cc(C)ccc3C)c2N)c1	23%	89%[activator]
COc1ccc2c(=O)c(Oc3ccccc3)c(C)oc2c1	16%	9%
CC1CCN(C(=O)CCc2ncc(-c3c(F)cccc3F)o2)CC1	82%[activator]	15%
COc1ccc(-c2noc(CN3CCCc4c(C(=O)NC(C)C)cccc43)n2)cc1OC	23%	16%
CC(=O)c1ccc(N2C(=O)N(Cc3cccc(C(F)(F)F)c3)c3ccccc3S2(=O)=O)cc1	-33%	1%
Cc1cc(C)n(-c2nc3ccccc3nc2Nc2ccc(Cl)cc2Cl)n1	10%	31%[activator]
CCC(=O)N(c1ccc(OC)cc1OC)C1C=CS(=O)(=O)C1 (stereo not drawn)	25%	7%
CC(NC(=O)c1[nH]c2ccc(Cl)cc2c1Cl)C(N)=O (stereo not drawn)	54%[activator]	-3%
CSc1nsc(SCC(=O)NCc2ccc(F)cc2)n1	-3%	-16%
COc1ccc(/C=C2\Oc3cc(OC(=O)C(C)(C)C)ccc3C2=O)c(OC)c1	-2%	-2%
CCc1ccc(NC(=O)Cn2c(=O)n(-c3ccccc3C)c(=O)c3c2c2cc(OC)ccc2n3C)cc1	-10%	-7%
CCOC(=O)c1cnc2c(ccc3ccccc32)c1Nc1cccc(C(F)(F)F)c1	-4%	-9%
CC(C)OCc1cc(CN2CCN(c3cccc(C(F)(F)F)c3)CC2)c(O)c2ncccc12	-11%	-4%
O=C(Nc1ccccc1C(F)(F)F)c1cc(=S)[nH]c2ccccc12	-9%	-3%
N#Cc1ccccc1OCc1ncc(-c2ccc(Cl)cc2)o1	136%[activator]	-8%[1.06 µM]
COc1cc(/C=C/C(=O)OCCOc2ccc(Cl)cc2)ccc1O	1%	-16%
CCOC(=O)c1oc2cc(OS(C)(=O)=O)ccc2c(=O)c1-c1ccc(OC)cc1	0%	0%
CC(C)(C)c1cc(C=O)c(O)c(C(C)(C)C)c1	188%[activator]	173%[activator]
COc1cc(-c2nc3c4c5c(sc4ncn3n2)COC(C)(C)C5)ccc1O	7%	8%
COC(=O)c1ccccc1NC(=O)c1ccc(CN2CC(=O)N3CCCCC3C2=O)cc1 (stereo not drawn)	-15%	-4%
CN(C)C1(CNC(=O)C2CCN(C(=O)c3ccc(F)cc3)CC2)CCCCCC1	12%	10%
CC1(NC(=O)c2cn(-c3cccc(Br)c3)nn2)CCS(=O)(=O)C1 (stereo not drawn)	-5%	-17%
Cc1cccc(NC(=O)CSc2cn(CC(=O)N3CCCC3)c3ccccc23)c1C	-19%	78%[activator]
O=C1C(=O)N(C23CC4CC(CC(C4)C2)C3)C(=O)N1Cc1coc(-c2ccc(F)cc2)n1	0%	0%
CCC(C(=O)Nc1ccc(OC)cc1OC)n1nc(-c2ccccc2)c2c(c1=O)CCCC2 (stereo not drawn)	5%	0%
O=C(Nc1ccc2c(c1)OCCO2)c1ncoc1-c1cccc(Cl)c1	-24%	-4%
Cc1cc(C)c(C(=O)c2sc(Nc3cccc(F)c3)nc2N)cc1C	90%[activator]	211%[activator]
COc1cc(CNC(=O)CC2Sc3ccccc3NC2=O)ccn1 (stereo not drawn)	-6%	-15%
COc1ccc2c(CNCCc3cccs3)c(C(=O)O)n(Cc3ccccc3C)c2c1	-10%	48%[activator]

Some of these compounds in order of molecular weight, highest first:
SMILES	StopGo FLuc	StopGo RLuc
COc1ccc2c(CNCCc3cccs3)c(C(=O)O)n(Cc3ccccc3C)c2c1	-10%	48%[activator]
CCOC(=O)c1oc2cc(OS(C)(=O)=O)ccc2c(=O)c1-c1ccc(OC)cc1	0%	0%
CN(C)C1(CNC(=O)C2CCN(C(=O)c3ccc(F)cc3)CC2)CCCCCC1	12%	10%
COc1cc(-c2nc3c4c5c(sc4ncn3n2)COC(C)(C)C5)ccc1O	7%	8%
COc1cc(/C=C/C(=O)OCCOc2ccc(Cl)cc2)ccc1O	1%	-16%

Continued.
SMILES	StopGo FLuc	StopGo RLuc
Cc1coc2cc3oc(=O)c(CC(=O)NCc4ccc(F)cc4)c(C)c3cc12	-1%	40%[activator]
CC(C)NC(=O)N1CCC2(CC1)NC(=O)c1ccccc1O2	5%	-3%
COc1ccc(C(=O)NCC(=O)NNC(=O)CSc2ccc(C)cc2)cc1	3%	3%
Cc1nn(Cc2cc(C(=O)O)c3ccccc3n2)c(C)c1Cl	-5%	-7%
CC(C)(CNC(=O)c1cc(-c2ccccc2F)on1)N1CCOCC1	0%	-1%
N#C/C(=C\c1cn(Cc2ccc(F)cc2)c2ccccc12)C(N)=O	35%[activator]	33%[activator]
COc1ccc(NC(=O)CC2C(=O)N(c3ccc(F)cc3)C(=O)N2Cc2cccnc2)cc1 (stereo not drawn)	5%	8%
CCOC(=O)c1cccnc1SCC(=O)N(CC)c1cccc(C)c1	-16%	2%
CCN(CC)S(=O)(=O)c1ccc(NC)c(N)c1	0%	-5%
O=C(COC(=O)c1cc(Br)c[nH]1)NCc1ccc(F)cc1	11%	-9%
COc1ccc(S(=O)(=O)N2CCc3c(c(-c4nnc(SC)n4C)nn3C)C2)cc1	9%	30%
CCc1nc(-c2cc(S(=O)(=O)N3CCN(c4ccccc4OC)CC3)ccc2OC)no1	-1%&1%	-3%&6%
COc1ccc(CNC(=O)C2=CC(c3ccc(OC)c(OC)c3)=NS(=O)(=O)N2C)cc1	-19%	-14%
CCOC(=O)c1c(NC(=O)COc2ccccc2F)sc2c1CCCC2	-11%	11%
COCCCNc1oc(-c2ccccc2C)nc1C#N	128%[activator]	59%[activator]
Cc1ccc(Sc2ccnc3cc(Cl)ccc23)cc1	13%	-5%[1.06 µM]
Cc1nc(-n2nc(C)c(CCC(C)C)c2C)sc1C(=O)Nc1ccc(Br)cc1	36%[activator]	11%
COC(=O)c1ccc(COC(=O)[C@H](C)NC(=O)c2ccccc2)cc1	2%	-4%
O=C1/C(=C/c2ccc(F)cc2)CCc2ccccc21	157%[activator]	12%
O=C1CCCC2=C1C(c1ccccc1F)n1nnnc1N2 (stereo not drawn)	-6%	-11%
O=C(NCC(c1cccs1)N1CCCC1)c1nn(Cc2ccccc2)c(=O)c2ccccc12 (stereo not drawn)	-7%	-14%
Cc1nc(NCC(C)C)sc1C(=O)NCc1ccncc1	0%	6%
CN(Cc1ccccc1)S(=O)(=O)c1ccc(-c2cnc(C3CC3)o2)cc1	-11%	27%
Clc1ccccc1N1CCN(c2ncnc3c2c(-c2ccccc2)cn3-c2ccccc2)CC1	-4%	-1%
COc1ccc(-c2nc(SCC(=O)Nc3cccc(C(F)(F)F)c3)n[nH]2)cc1	-24%	?
CN(CCC#N)C(=O)CNC(=O)C1CCCN(S(=O)(=O)c2ccc(Cl)cc2)C1 (stereo not drawn)	5%	9%
N#CC1(NC(=O)CSc2ccc3ccccc3n2)CCCCC1	7%	41%[activator]
COc1cccc2cc(C(=O)N3CCCCCCC3)c(=O)oc12	20%	20%
COc1ccc(F)cc1S(=O)(=O)Nc1ccc2c(c1)CCCN2C(=O)c1cccs1	-12%	185%[activator]
CCCc1ccc(C(=O)NC2CCSC2=O)cc1 (stereo not drawn)	168%[activator]	12%
O=C(NCC(c1cccnc1)N1CCOCC1)C(=O)Nc1cccc(Cl)c1 (stereo not drawn)	-11%	-12%
NCc1ccccc1OC(F)(F)F	-9%	7%
COc1ccc(C(=O)/C(C#N)=C\c2ccc(Cl)cc2Cl)cc1	23%	25%
COC(=O)c1ccccc1NC(=O)c1nc(S(=O)(=O)Cc2ccccc2F)ncc1Cl	-2%	5%
Cc1ccc(C)c(-n2c(Cc3cc(=O)[nH]c(=O)[nH]3)nnc2SCC(=O)c2ccccc2)c1	-1%	-7%
COC(=O)C1=C(CN2CCN(C(C)C)CC2)NC(=O)NC1c1ccc(C)cc1 (stereo not drawn)	-5%	-4%
Cc1cccc(N2CCN(S(=O)(=O)c3ccc4c(c3)CC(=O)N4C)CC2)c1C	-2%	-8%
CCCCN(CCCNC(=O)c1cc(Nc2ccccc2OC)nc2ccccc12)c1ccccc1	0%	-6%
COc1ccc(Nc2nc3ccccc3c3nnc(C)n23)cc1Cl	10%	-7%
COc1ccc(CNC(=O)c2ccccc2C(F)(F)F)cc1C(=O)O	1%	-1%
CCc1ccc(CNC(=O)c2sc3ncnc(N(C)C4CCCCC4)c3c2C)cc1	-11%	-8%
CCC(=O)N1CCN(c2oc(/C=C/c3ccccc3)nc2C#N)CC1	24%	13%
O=C(/C=C/c1ccc(C(F)(F)F)cc1)N1CCN(C(=O)C2CC2)CC1	1%	-5%
CCOc1ccccc1NC(c1nnc(-c2ccccc2)o1)c1ccc(F)cc1Cl (stereo not drawn)	-8%	8%
CCCc1cc(=O)oc2cc(C)cc(OCC(=O)C(C)(C)C)c12	?	?
Cc1[nH]c2ccccc2c1C(=O)C(C)Cl (stereo not drawn)	-7%	-17%
CC(C)c1cc(C(=O)Nc2ccc(NC(N)=O)cc2)c2ccccc2n1	0%	0%
O=c1cc(-c2ccccc2)c2cc3c(-c4ccccc4)coc3cc2o1	0%	0%
O=C(Nc1ccccc1)N1c2ccccc2Sc2ccccc21	16%	6%
CC1(CI)CSc2sc3ccccc3[n+]21 (stereo not drawn)	68%[activator]	24%
S=C(Nc1cccc(Cl)c1)N(Cc1ccccc1)Cc1ccccc1	-22%	18%[1.06 µM]
CCn1c(SCC(=O)O)nc2c1c(=O)[nH]c(=O)n2C	17%	13%
Cc1cc(C)c2oc(C(=O)Nc3ccc(S(=O)(=O)N4CCCCCC4)cc3)cc(=O)c2c1	-15%	-8%
CC(OC(=O)c1ccccc1Cc1ccccc1)C(=O)NC(N)=O (stereo not drawn)	0%	20%
COc1cccc(Cn2c(=O)n(CCc3ccccc3)c(=O)c3c2c2cc(OC)ccc2n3C)c1	3%	-4%
CCNC(=O)NC(=O)CN1CCN(Cc2ccc(C#N)cc2)CC1	2%	1%
Cc1cc(C(=O)Nc2ccc(Cl)cc2)c2c(C)nn(-c3ccccc3)c2n1	-18%	-12%
Cn1nc(C(=O)OCC(=O)Nc2cc(Cl)ccc2C#N)c2ccccc2c1=O	-7%	-10%
CCOc1ccc(CN2CCN(S(=O)(=O)c3ccc(Cl)cc3)CC2)cc1	-9%	10%
COc1cc(CCC(=O)N(CC#N)C2CC2)cc(OC)c1	0%	6%

Further results.
SMILES	StopGo FLuc	StopGo RLuc
Cc1c(Cl)cccc1NC(=O)c1cc(S(=O)(=O)N2CCCCC2)cn1C	?	-11%
Cc1cc(C)c(S(=O)(=O)N2CCC(n3c(C(F)(F)F)nc4cccnc43)CC2)c(C)c1	-6%	-9%
Cc1ccsc1/C=C1\Oc2cc(OC(=O)C(C)(C)C)ccc2C1=O	43%[activator]	-9%
Cc1ccc2nc(-c3ccccc3)cc(C(=O)Nc3ccccn3)c2c1	16%	-2%
CCCNC(=O)c1ccc2nc(CCc3ccccc3)oc2c1	173%[activator]	-10%
Cc1cc2nc(CSc3nc4ccc(NC(=O)C(C)C)cc4s3)cc(=O)n2o1	18%	4%
Cc1[nH]nc2c1C(c1ccc(OCC(N)=O)cc1)SCC(=O)N2 (stereo not drawn)	-2%	-9%
CC(=O)Nc1c(C)nn(-c2ccccc2)c1N1CCC(C(=O)NCc2ccc(Cl)cc2)CC1	-7%	4%
Cn1nc(C(=O)Nc2nc(-c3cc(F)ccc3F)cs2)c2ccccc2c1=O	51%[activator]	17%

Reformatted field by field: part of the list above
> Cc1ccsc1/C=C1\Oc2cc(OC(=O)C(C)(C)C)ccc2C1=O
  StopGo FLuc: 43%[activator]
  StopGo RLuc: -9%
> Cc1ccc2nc(-c3ccccc3)cc(C(=O)Nc3ccccn3)c2c1
  StopGo FLuc: 16%
  StopGo RLuc: -2%
> CCCNC(=O)c1ccc2nc(CCc3ccccc3)oc2c1
  StopGo FLuc: 173%[activator]
  StopGo RLuc: -10%
> Cc1cc2nc(CSc3nc4ccc(NC(=O)C(C)C)cc4s3)cc(=O)n2o1
  StopGo FLuc: 18%
  StopGo RLuc: 4%

Not a hit list. About 0.55% of those tested had a hit in this group.
